HPGD block = inhibitors of human 15-hydroxyprostaglandin dehydrogenase (HPGD). 150,000 compounds, 4.3% hits. Potency, µM, inactives show at the highest dose activity change, negative = inhibition, actives largely listed as inhibitors. purified HPGD, NADH fluorescence kinetic, PGE2 substrate. AID 894; active = well fitted inhibition curve with a large enough effect (not every such curve was filed as active); inconclusive = small, poorly fitted or top-dose-only effect, or another doubt; inactive = no such curve, though single readings can be large or run the other way;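 note: top concentration of the series not given in the record; plate controls included wells without enzyme; inactives centre near -10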
Target sequence (P15428 whole entry, looked up): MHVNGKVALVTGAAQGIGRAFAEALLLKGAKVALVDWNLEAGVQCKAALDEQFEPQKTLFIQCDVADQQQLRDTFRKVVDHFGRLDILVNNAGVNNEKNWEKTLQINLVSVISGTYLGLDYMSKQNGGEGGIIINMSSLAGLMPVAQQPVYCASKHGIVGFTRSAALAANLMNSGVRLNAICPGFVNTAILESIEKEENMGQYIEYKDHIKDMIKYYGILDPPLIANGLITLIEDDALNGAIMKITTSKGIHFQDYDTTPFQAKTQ
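NADH formation kinetics: reaction with 30 uM PGE2 and 1 mM NAD+ (final), 20 nM enzyme, Tris-HCl pH 8 with Tween 20, after 15 min compound preincubation at room temperature. Fluorescence change, last versus first of five reads.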
An asterisk follows results filed as active; ? = inconclusive; & = joins results of further samples. % is set by controls: 0 for no effect and ±100 for the full control effect; potency is the fitted concentration of half-maximal effect.

Sample of the layout, 6 compounds:
HPGD block,compound
-1.7%,COc1cccc(NC(=O)CSc2nnc(Cn3cnc([N+](=O)[O-])n3)n2C)c1
-22.8%,O=C(CSc1ccc(-c2ccccc2)nn1)NCc1ccco1
-4.7%,CC(c1cccnc1)N(C(=O)Nc1ccccc1)C1CCCCC1 (stereo unspecified)
-23.4%,CO/N=C/c1ccc(Oc2ccc([N+](=O)[O-])cc2[N+](=O)[O-])c(OC)c1
-10.7%,COc1ccc2[nH]c(=O)c(C(c3nnnn3C3CCCC3)N(C)C3CCCCC3)cc2c1 (stereo unspecified)
-15.0%,CCOC(=O)c1ccc(NC(=O)Oc2ccccc2)cc1

Results, from the first entry:
HPGD block,compound
-1.7%,COc1cccc(NC(=O)CSc2nnc(Cn3cnc([N+](=O)[O-])n3)n2C)c1
-22.8%,O=C(CSc1ccc(-c2ccccc2)nn1)NCc1ccco1
-4.7%,CC(c1cccnc1)N(C(=O)Nc1ccccc1)C1CCCCC1 (stereo unspecified)
-23.4%,CO/N=C/c1ccc(Oc2ccc([N+](=O)[O-])cc2[N+](=O)[O-])c(OC)c1
-10.7%,COc1ccc2[nH]c(=O)c(C(c3nnnn3C3CCCC3)N(C)C3CCCCC3)cc2c1 (stereo unspecified)
-15.0%,CCOC(=O)c1ccc(NC(=O)Oc2ccccc2)cc1
-21.9%,O=C(CCSc1ccccn1)Nc1ccc(Br)cc1
-1.2%,Cc1ccc(C(=O)O/N=C(\N)c2nonc2N)cc1
-7.6%,CCN(CC)c1nc(Nc2ccc(Cl)cc2)nc(OCC#N)n1
-2.5%,CCOC(=O)C(C)Sc1nnc2n1C(C)(C)Cc1ccccc1-2 (stereo unspecified)
-10.0%,NNC(=O)CCS(=O)(=O)c1ccc2ccccc2c1
0.794µM*,C=CCCCCCCCCCCCc1ccco1
?,COc1ccc(-c2nc(C#N)c(N3CCN(c4ccccc4)CC3)o2)cc1
-7.1%,Cc1cc(C)n(C(=O)CNc2cccc(Cl)c2C)n1
-1.1%,Cc1cc(NC(=O)C2CC(=O)OC2c2ccccc2)no1 (stereo unspecified)
?,COCCn1c(-c2ccccc2)nc2c(c(=O)c3ccccc3n2C)c1=O
?,COc1ccc(OC)c(/C=N/NC(=O)CCN2CCN(C(c3ccccc3)c3ccccc3)CC2)c1
-11.0%,N#Cc1c2c(c(NCc3cccnc3)n3c1nc1ccccc13)CCC2
-22.8%,O=C(Cc1c(C(=O)O)[nH]c2ccccc12)NCCN1CCN(c2ccccc2F)CC1
-15.6%,CCCNC(=O)OC[C@H]1O[C@H](CCO/N=C/[C@@H](OC)[C@H](C)/C=C/CC(=O)OC)C=C[C@@H]1Oc1ccc(OC)cc1
-14.1%,CCOc1cc(CNCc2ccncc2)cc(Br)c1OCc1ccccc1F
-7.2%,Cc1ccc(OCC(=O)NC(=S)Nc2cccc(NC(=O)c3ccc(Cl)cc3Cl)c2)cc1
-21.5%,COc1ccc2c(c1)C(c1ccccc1)=NNC(c1ccco1)=N2
-5.4%,CCOCCCNC(=O)C(c1ccccc1)N(Cc1cccs1)C(=O)CNC(=O)c1ccccc1 (stereo unspecified)
-2.4%,O=C(CSc1nnc2sc3ccccc3n12)N1CCN(c2ccccc2)CC1
-10.4%,O=C(c1cccc(NS(=O)(=O)c2cccc(F)c2)c1)N1CCN(c2ccccc2)CC1
?,CCN(CC)c1nc(C)c2c(c1C#N)CC(C)(C)OC2
0.8%,NC(C(=O)O)C(O)C(=O)O (stereo unspecified)
-3.1%,COc1ccccc1OCc1ccc(C(=O)N/N=C/c2ccco2)cc1
4.6%,Cc1ccc(CN(C)CCc2ccccn2)cc1
-12.5%,CC(C)n1c(/C=C\[C@@H](O)C[C@@H](O)CC(=O)O)c(-c2ccc(F)cc2)c2ccccc21
-11.3%,O=C(O)CSC(NC(=O)c1cccnc1)(C(F)(F)F)C(F)(F)F
-1.3%,CCN(CC)S(=O)(=O)c1ccc(Cl)c(NC(=O)COc2ccc(OC)cc2[N+](=O)[O-])c1
-2.5%,CCOc1ccc(S(=O)(=O)N2CCN(c3ccccc3F)CC2)c2cccnc12
-2.7%,Cc1ccc(Nc2nc(N)nc(CN3CCN(Cc4ccc5c(c4)OCO5)CC3)n2)c(C)c1
-21.2%,CCC1CCCCN1C(=S)Nc1ccc(C(C)=O)cc1 (stereo unspecified)
-11.3%,Cc1ccc(Nc2ccc(S(=O)(=O)N3CCOCC3)cc2[N+](=O)[O-])cc1C
-0.7%,Cc1ccc(/C(O)=C2\C(=O)C(=O)N(CCN(C)C)C2c2ccccc2F)cc1 (stereo unspecified)
-2.9%,N[C@H](CO)C(=O)NCC(=O)O
-3.7%&-8.6%,COc1cccc([C@@H]2Oc3ccc(OC)cc3C(=O)[C@H]2OC(=O)Nc2cc(OC)c(OC)c(OC)c2)c1
?,COc1ccc(Oc2c(C)oc3c(CN4CCOCC4)c(O)ccc3c2=O)cc1
-12.0%,CCOc1ccc(NC(=O)CCSc2nc3c(c(CC)c2C#N)C(=O)CC(C)(C)C3)cc1
-11.1%,COC(=O)[C@@]1(Cc2ccc(OC)cc2)[C@H]2c3cc(C(=O)N(C)C)n(Cc4cc(C)n(C)n4)c3C[C@H]2CN1C(=O)c1ccccc1
-29.1%,O=C(Nc1ccc(N2CCN(C(=O)c3ccco3)CC2)c(Cl)c1)c1cccs1
22.4µM*,O=C(Nc1ccc(Br)c(Cl)c1)c1ccco1
-5.8%,CSc1ccccc1Sc1cc(C(=O)O)c2ccccc2n1
-14.4%,Cc1cc(Cl)ccc1OCC(=O)NCCCCc1ccccc1
-2.7%,O=c1c2ccccc2n(Cc2ccc(Cl)cc2)c(=O)n1Cc1ccco1
?,COc1ccc2c(c1)C(=NN)c1cc(OC)ccc1-2
?,O=C(Cn1c2ccccc2c(=O)c2ccccc21)N/N=C/c1cc([N+](=O)[O-])ccc1N1CCCCCC1
-5.9%,O=C(N/N=C/c1cccc([N+](=O)[O-])c1)c1cnccn1
-3.2%,Cc1nc2c(cc1C(=O)N/N=C/c1ccc([N+](=O)[O-])cc1)c(=O)n(C)c(=O)n2C
-13.8%,CCOCCCNC(=O)c1[nH]c(C)c(C(C)=O)c1C
-2.8%,CC(C)[C@H](NC(=O)c1ccccc1F)C(=O)Nc1nc2c(s1)CCCC2
2.4%,Cc1ccc(S(=O)(=O)N2CCOCC2)cc1C(=O)OCC(=O)N1c2ccccc2NC(=O)C1(C)C
0.8%,COc1ccc(-c2c(C)n([O-])c3c([n+]2=O)CCC3)cc1OC
2.24µM*,Cc1ccc(-c2nc(N)s[n+]2-c2ccccc2)cc1
-10.4%,CCOc1ccc(NC(=O)C(=O)N/N=C\c2ccc(CNS(=O)(=O)c3ccccc3)o2)cc1
2.0%,CC(NC(=O)/C=C/c1ccco1)c1nc2ccccc2n1Cc1cccc(Cl)c1 (stereo unspecified)
-21.6%,O=C(CSc1nnc(-c2cccnc2)s1)Nc1ccc(C(=O)O)cc1

Later entries
HPGD block,compound
0.2%,CCOc1ccc(C(=O)OCn2nnc3ccccc3c2=O)cc1OC
-6.3%,c1ccc(CCNc2nc3ccccc3s2)cc1
?,CCc1ccc(OCCCOc2ccc(C=O)cc2)cc1
?,COc1ccc2oc(=N)c(-c3nnc4n3CCCCC4)cc2c1
?,COc1cc(OC)c2c(N)c(C#N)c(C(F)(F)C(F)(F)F)nc2c1
-7.6%,CC(C)C(c1nnnn1C1CCCC1)N1CCOCC1 (stereo unspecified)
3.98µM*,C=CCc1cc(C(=O)N2CCCCC2)ccc1O
-7.8%,COc1ccc(OCc2nnc(SCC(N)=O)n2-c2ccccc2OC)cc1
?,CC1=C(C#N)C(c2cccnc2)C2=C(CC(c3ccc(Cl)cc3)CC2=O)N1 (stereo unspecified)
-1.8%,CCOC(=O)N1CCN(C(=O)c2sc3nc(-c4ccc(F)cc4)cn3c2C)CC1
-0.8%,CC1CN(Cc2ccccn2)CCC1=O (stereo unspecified)
-19.8%,COc1ccc(OC)c(C(=O)c2coc3ccc(OCC(=O)O)cc23)c1
?,COc1ccc(-c2nc(C#N)c(NCC3CCCO3)o2)cc1OC (stereo unspecified)
-5.9%,COc1cc(-c2nnc(SCC(=O)c3ccc(C)cc3)o2)cc(OC)c1OC
-0.4%,O=C(Nc1c(-c2ccccc2)nc2ccc(Cl)cn12)c1cccs1

Copied from the list.
`CC1CN(Cc2ccccn2)CCC1=O` (stereo unspecified) in HPGD block reads -0.8%
`C=CCc1cc(C(=O)N2CCCCC2)ccc1O` in HPGD block reads 3.98µM*
`O=C(Nc1c(-c2ccccc2)nc2ccc(Cl)cn12)c1cccs1` in HPGD block reads -0.4%

Additional compounds follow:
HPGD block,compound
-11.7%,COc1cccc(C2CC(c3ccccc3Cl)n3nc(N)nc3N2)c1 (stereo unspecified)
-10.5%,CC1(NC(=O)NCc2ccco2)CCS(=O)(=O)C1 (stereo unspecified)
-8.4%,CCC(NC(=O)Nc1nccs1)(C(F)(F)F)C(F)(F)F
-16.6%,O=[N+]([O-])c1cc(Cl)cc(/C=N\Nc2ccccn2)c1O
-9.0%,CCCOc1ccc(NC(=O)OC2CCN(C)CC2)cc1
-5.0%,CC(=O)c1ccc(OCC(O)CN2CCN(CCO)CC2)cc1 (stereo unspecified)
22.4µM*,O=C(CCNC(=O)c1ccccc1Cl)Nc1ccc(Cl)c(C(F)(F)F)c1
-12.4%,Cc1cc(C)nc(NC(=O)/C=C/c2ccccc2Cl)n1
-5.8%,COc1ccnc(Oc2ccc(F)cc2)c1C(=O)N/C=N/OCc1ccc(F)cc1
-9.7%,COc1ccc(N2CCN(C(=O)CN(CCc3ccccc3)S(C)(=O)=O)CC2)cc1
31.6µM*,C[C@H](N)c1nnc(SCc2c(Cl)cccc2Cl)o1
-7.8%,O=C(Oc1ccccc1)N1CCC2(CCCN(c3ccc(-c4ccccc4)cc3)C2)CC1
25.1µM*,O=C(CSc1nnc(-c2ccccc2Br)o1)N1CCc2ccccc2C1
14.1µM*,Cc1ccc(NC(=O)Cn2cccc2)c(Br)c1
-6.4%,CCOC(=O)c1nn(-c2cc(C(=O)OC)cc(C(=O)OC)c2)cc1O
-10.7%,CNc1nc(-c2ccc([N+](=O)[O-])cc2)cs1
-10.2%,C=CCn1c(=NC(=O)C2COc3ccccc3O2)sc2cc(S(N)(=O)=O)ccc21 (stereo unspecified)
-8.3%,Cn1c(=O)oc2cc(S(=O)(=O)NCCC(=O)NC3CCCC3)ccc21
8.91µM*,COc1cc(/C=C2\C(=O)N(CCC#N)N=C2C)c(Br)cc1OC(C)C
-12.5%,COc1cc(/C=N/NC(=O)CSc2cc(C)c(Br)cc2C)ccc1O
-25.5%,CCOC(=O)N1CCN(C(=O)c2ccc(NS(C)(=O)=O)cc2)CC1
?,COC(=O)C1C(=O)C2=C(CC1C)NC(C)=C(C(=O)OCc1ccc(OC)cc1)C2c1ccc(C)o1 (stereo unspecified)
-11.7%,COc1ccccc1CNC(=O)CCn1c(=O)oc2ccccc21
-29.8%,COc1ccc(OCc2nnc3n2N=C(c2ccc(OC)cc2)CS3)cc1
-7.8%,CCc1nc2c(sc3nc(N4CCOCC4)c4c(c32)CC(C)(C)OC4)c(=O)o1
-22.0%,COC(=O)[C@@H]1[C@@H]2C[C@H]3c4[nH]c5cc(OC)ccc5c4CCN3C[C@@H]2C[C@H](OC(=O)c2cc(OC)c(OC)c(OC)c2)[C@H]1OC
-10.9%,COc1ccc(NC(=O)c2cc(-c3ccccc3Cl)no2)cc1
?,Cc1c(C)c2ccc(OCC(=O)N(C)C)c(C)c2oc1=O
?,O=c1cc(C(F)(F)F)nc(-n2[nH]c3c(c2=O)CCCC3)[nH]1
-12.9%,CC(=O)CC(c1ccc([N+](=O)[O-])cc1)c1c(O)c2ccccc2oc1=O (stereo unspecified)
-16.2%,CCOC(=O)C1CCN(c2c(NC3CCCCCCC3)c(=O)c2=O)CC1
?,c1csc(-c2nc3c4ccccc4c4ccccc4c3[nH]2)c1
-29.4%,COCCCn1c(SCc2ccccc2)nc2cc(OC)c(OC)cc2c1=N
-11.3%,Cc1ccc2nc(NC(=O)CCNS(=O)(=O)c3cccs3)sc2c1
2.1%,OC[C@@H]1O[C@H](n2cnc3c(/C=C(\O)c4ccccc4)ncnc32)[C@H](O)[C@@H]1O
-14.5%,CCCSc1nnc(CSc2nc3ccccc3s2)n1-c1ccccc1
-16.9%,Cc1nn(C(C)(C)C)c(OC(=O)c2ccc3c(c2)OCO3)c1Sc1ccccc1
-10.3%,Cc1ccc(-c2nn(C)c(=O)c3ccccc23)cc1CN1CCOCC1
-5.1%,COc1ccccc1OCCC(=O)OCC(=O)Nc1ccc(Br)cc1
28.2µM*,O=C(NCc1cccc(C(F)(F)F)c1)c1cc(Cl)ccc1Cl
-25.6%,O=C(Nn1c(O)c(C=C2N=c3ccccc3=N2)sc1=S)c1ccccc1Cl
-1.3%,CCOc1ccc(N2C(=O)c3cccnc3C2=O)cc1
-0.1%,CC1=CCC2C(=O)N(c3nc(C)cc(C)n3)C(=O)C2C1 (stereo unspecified)
0.9%,COc1cccc(C(=O)N2CCN(C3CCC(c4ccccc4)CC3)CC2)c1 (stereo unspecified)
-11.1%,O=C(CN1C(=O)S/C(=C/c2ccc(N3CCOCC3)cc2)C1=O)N1CCOCC1
-23.1%,CN1CCN(c2oc(-c3cccs3)nc2S(=O)(=O)c2ccccc2)CC1
-19.2%,O=C(c1ccc(NS(=O)(=O)c2ccccc2)cc1)N1CCN(Cc2ccc3c(c2)OCO3)CC1
-16.1%,O=C(N/N=C/c1cc([N+](=O)[O-])ccc1Cl)c1ccc2nc[nH]c2c1
-12.9%,CCOC(=O)c1sc(NC(=O)CSc2ncn(-c3ccccc3)n2)nc1C
-8.3%,CON=C1CCN(c2ncc(C(F)(F)F)cc2Cl)CC1

Bioassay records as filed in PubChem.

A portion of the library; rates above refer to the full screens.
